High-throughput results deposited in PubChem BioAssay by Fisher Drug Discovery Resource Center.
NPYLR7 agonist: agonists of mosquito NPYLR7 receptor, primary screen, cell-based, Aedes aegypti, calcium fluorescence, mosquito biting behavior | Aedes aegypti neuropeptide Y-like receptor 7 (NPYLR7) | HEK293T NPYLR7/Galpha15, GCaMP6s calcium fluorescence | activation, % at 10 µM | 270,000 compounds, 0.15% hits; in the data active = activation above about 40%;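 also: 0% = vehicle and 100% = reference agonist at the receptor; some compounds past the cut are filed as inactive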
NPYLR7 agonist max-min: further read-out of NPYLR7 agonist, marked with its call; activation, %; measured here: Max-Min RFU normalised activation; some inactives read as strong as hits;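 span of the calcium signal over five minutes; 0% = vehicle and 100% = native peptide agonist; compound fluorescence can raise it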
* hit, by the source's call; & = joins results of further samples. A portion of the library; the hit share may differ from the screen's.

SMILES | NPYLR7 agonist | NPYLR7 agonist max-min
O=C(Cc1cccnc1)NC1CCCN(CCCc2ccccc2)C1 (configuration not stated) | 14.6 | 2.1
CCN(CC)C(=O)Oc1ccc2c(ccn2Cc2ccc(Cl)cc2)c1NC(C)=O | -1.4 | 3.3
C=CCON1C(=O)C2C3OC(C2C1=O)C1C3C2(Cl)CC1(Cl)C(Cl)=C2Cl (configuration not stated) | 0.6 | 20.9
CC(=O)NC1CCN(c2cc(C3CCNCC3)nc(C)n2)CC1 | 0.1 | -1.8
CCC(C(=O)N(CCOC)CC(=O)N1CCc2sccc2C1c1ccc(Cl)cc1Cl)c1ccccc1 (configuration not stated) | -6.0 | -7.8
CC(C(=O)NC1CC1)N1CCc2[nH]nc(-c3ccc(-c4ccccc4)cc3)c2C1 (configuration not stated) | -5.0 | -10.1
C=C(C)[C@@H]1CC=C(CN(C)Cc2ncc[nH]2)CC1 | 7.3 | -4.2
COC(=O)[C@@H]1C[C@@H](O)CN1Cc1c(C(=O)N2CCCC2)nc2sccn12 | -1.9 | -0.4
O=c1c(Cl)c(Cl)cnn1CN1CCCC1c1cccc2ccccc12 (configuration not stated) | 1.0 | -1.6
CN1C(=O)C2(OCC(CO)([N+](=O)[O-])CO2)c2ccccc21 (configuration not stated) | -2.1 | -4.8
CN=c1scc(-c2ccccc2F)n1C | 1.5 | -1.2
Cc1ccc(F)cc1CC(=O)N(C)Cc1cc(C(C)(C)C)n[nH]1 | 0.3 | 4.5
Oc1ccc(N2CCN(CC(O)Cn3cccn3)CC2)cc1 (configuration not stated) | 5.3 | 2.3
Cc1nc(C)c(Cc2ccc(F)cc2)c(N2CCN(C(=O)c3ccc(Cl)cc3)CC2)n1 | 14.0 | 12.2
CCc1oc(=O)c(NC(=O)c2ccccc2)cc1C(=O)OC | 1.9 | -0.4
c1ccc(-n2c(SCc3cc(-c4ccco4)on3)nnc2C2CC2)cc1 | 2.9 | -0.1
S=C(Nc1ccccn1)Nc1c(Cl)cccc1Cl | 3.3 | 3.8
Nc1cccc2c1C(=O)c1cccc(N)c1C2=O | -0.6&-2.7 | 17.0&-10.7
Cc1cccc(-c2nnc(SCC(=O)N3CCc4ccccc43)o2)c1 | 2.0 | -4.1
CCN(Cc1ccco1)C(=O)c1csc(-c2ccccc2F)n1 | -1.9 | -2.6
CCN(CC)c1ccc2cc(-c3nnc(Nc4ccc(Oc5ccccc5)cc4)s3)c(=O)oc2c1 | -1.5 | -4.5
COc1ccccc1-c1cnc(C(O)c2ccc(C)cc2)[nH]1 (configuration not stated) | 1.8 | -1.8
CN(C)c1ccc(C(=O)N=Nc2c(O)[nH]c3ccccc23)cc1 | -5.4 | -11.7
O=C(c1cnn2ccccc12)N1CCc2nnc(CCc3ccccc3)n2CC1 | 4.0 | 2.3
CCN(C(=O)COC(=O)c1ccc(O)cc1)C1CCCCC1 | 2.0 | 1.3

The list continues:
SMILES | NPYLR7 agonist | NPYLR7 agonist max-min
O=C(NCCn1nc(-c2cccnc2)ccc1=O)c1ccc(C(F)(F)F)cc1 | 20.3 | 12.5
COc1ccc(-c2nccnc2NCCc2c[nH]c3ccccc23)cc1OC | -8.1 | -11.1
COc1ccc(/C=C2\C=C(c3ccccc3)N(c3ccc(C)c(C)c3)C2=O)cc1Br | -1.5 | 5.5
CCN(CC)c1cc(Cl)nc(SCC(=O)O)n1 | 45.4 | 34.7
CN(CCCc1cc(-c2ccc(F)cc2)n[nH]1)c1ncccc1C#N | 1.1 | -1.2
COc1ccc(C2=NOC(CN(Cc3ccccc3F)C(=O)NC(C)C)C2)cc1OC (configuration not stated) | -14.2 | -6.8
COc1ccc(OCc2nn3cnnc3s2)cc1 | 0.8 | 0.0
CCC(NC(=O)CN1CCCN(C(C)=O)CC1)c1ccc(Br)cc1 (configuration not stated) | 1.8 | 3.1
NS(=O)(=O)c1cnc(NC2CCCN(c3ccc(OC(F)F)cc3)C2=O)s1 (configuration not stated) | 4.2 | 3.4
CC(=O)Nc1cccc(NC(=O)Cc2ccc(C)cc2)c1 | -0.2 | -0.2
CCOC(=O)c1[nH]ncc1CN1CCN(Cc2ccc(C)o2)C(CCO)C1 (configuration not stated) | 5.2 | -0.6
COc1ccc(-c2csc(NCc3ccco3)n2)cc1F | 12.3 | 8.3
C=C(C)Cn1c(CCn2c3ccccc3c3ccccc32)nnc1SCC(=O)OC | 22.5 | 21.0
O=C(CCl)N1CCN(S(=O)(=O)c2c(F)cccc2F)CC1 | 6.0 | 0.2
CC1(C(=O)NS(=O)(=O)c2cccc(F)c2)CCN1C(=O)C1(c2ccc(Cl)cc2)CCC1 (configuration not stated) | 0.5 | 1.5
CCOCCCN(CC(=O)N(Cc1ccccc1)Cc1cccn1Cc1ccc(F)cc1)C(=O)c1ccc([N+](=O)[O-])cc1 | -6.6 | 2.4
CC1ON=C(c2ccc(CN3CCOCC3)cc2)N(Cc2cccc(F)c2)C1=O (configuration not stated) | 12.1 | 6.9
Cc1cc(C(F)(F)F)nc(CCNC(=O)C2CCC(=O)N(C3CC3)C2)n1 (configuration not stated) | 3.9 | 3.3
CCn1c(O)c(C(C)=NNC(=O)C2CCCCC2)c(=O)n(CC)c1=S | 4.5 | 1.2
C=CCn1c2ccccc2c2nnc(SCCN3CCOCC3)nc21 | 0.4 | -3.2
CCOc1ccc(-c2cc3c(=O)n(CC(=O)NC4CCCCC4)ccn3n2)cc1 | 1.6 | 0.0
CNC(=O)COc1ccc(Oc2ccc(C)cc2)cc1 | -20.9 | -21.6
COc1ccnc(N2CCN(Cc3ccc(S(C)(=O)=O)cc3)CC2)n1 | 2.3 | -1.3
CCC(=O)N(Cc1c(C)nn(-c2ccccc2)c1N1CCN(CC)CC1)C(C)C | 0.2 | 8.4
CCN1C(=O)N(C2Cc3ccccc3C2)C(=O)C12CCN(Cc1ccc(Oc3ncccn3)cc1)CC2 | 14.0 | -1.9

Next part
SMILES | NPYLR7 agonist | NPYLR7 agonist max-min
COc1ccc(CCOC(=O)[C@@H]2CCCN2C(=O)c2ccccc2C(F)(F)F)cc1OC | -14.6 | -18.7
CCOC(=O)c1c(N)sc(C(=O)N2CCOCC2)c1C | -4.4 | -10.7
COc1ccc(C(=O)N(CCC(C)C)Cc2c(-c3ccccc3)noc2N2CCCCC2)cc1 | 4.4 | 3.0
O=C(c1cccnc1Sc1ccc(Cl)cc1)N1CCN(Cc2cc(=O)c(OCc3ccccc3Cl)co2)CC1 | 0.2 | -5.6
Nc1cc(S(=O)(=O)N2CCCCC2)ccc1Oc1ccc(Cl)cc1 | -1.0 | -2.4
CCN1C(=N)C(C#N)C(c2ccc3[nH]c4ccccc4c3c2)c2nc(C)oc21 (configuration not stated) | -12.4 | -16.5
CCN(CC)C(=O)Oc1ccc2c(ccn2Cc2ccc(F)cc2Cl)c1-c1ccc(OC)cc1 | 6.0 | -2.4
Cc1c(C(=O)NCCCCc2ccccc2)cnc2c(-c3ccc4c(c3)OCO4)cnn12 | 13.9 | 6.0
CC(C)SCCn1nc(C2CCCNC2)n(-c2ccccc2)c1=O (configuration not stated) | 17.1 | 14.0
CC(C(=O)Nc1ccc(CC#N)cc1)N1CCc2ccccc2C1 (configuration not stated) | 6.7 | 10.1
CC(C)CN1CCC(CNC(=O)c2ccc(-c3ccc4c(c3)OCO4)nc2)C1 (configuration not stated) | 17.4 | 2.1
COc1ccc(OC)c2nc(N(C)C)c(CN(Cc3ccc4c(c3)OCO4)C(=O)C3CCCCN3C)cc12 (configuration not stated) | -5.9 | -6.1
C/C(=C/C(=O)N1CCCC(N2CCCC2=O)C1)c1ccccc1C (configuration not stated) | 2.6 | 4.4
CCCN(CCO)C(=O)CN1C(=O)N(C)C2(CCCCC2)C1=O | 8.0 | 6.2
c1ccc2c(c1)CCC2=NNc1nc2ccccc2[nH]1 | 1.9 | -6.5
O=C(Nc1ccccc1Oc1ccccc1Cl)C1CCC1 | 3.2 | 0.9
O=C(CCN1CCc2sccc2C1c1cccc(F)c1)N1CCN(C(=O)Cc2cccs2)CC1 (configuration not stated) | 8.7 | -1.7
O=C(c1ccc(NC2CCC(O)CC2)nc1)N1CCC(CCn2cccn2)CC1 (configuration not stated) | 1.5 | -0.7
CCc1cccc(CC)c1NC(=O)Cn1cnnn1 | 5.9 | 5.4
N#CC(=Cc1ccco1)S(=O)(=O)c1ccc(Cl)cc1 | 7.3 | 13.4
CCOC(=O)c1c(C)[nH]c(C(=O)COC(=O)c2ccco2)c1C | 0.2 | -1.2
COc1ccc(C(=O)C2CCCN(CC(=O)Nc3cnn(C)c3)C2)cc1F (configuration not stated) | 27.0 | 21.2
N#Cc1c(N)oc(-c2ccccc2)c1-c1ccccc1 | 6.5 | 5.9
COCC1(C(=O)N(C)Cc2nc3ccc(C)cc3[nH]2)CCC1 | -0.2 | -2.5
Nc1nnc(CCS(=O)(=O)c2ccc(Br)cc2)s1 | -9.8 | -9.2

Some values from the list:
Under NPYLR7 agonist max-min, Nc1nnc(CCS(=O)(=O)c2ccc(Br)cc2)s1 is listed with -9.2
Under NPYLR7 agonist max-min, CC(C)CN1CCC(CNC(=O)c2ccc(-c3ccc4c(c3)OCO4)nc2)C1 (configuration not stated) is listed with 2.1

Additional entries.
SMILES | NPYLR7 agonist | NPYLR7 agonist max-min
CCS(=O)(=O)c1ccc(-c2ccc(NS(=O)(=O)c3ccc(C)cc3C)cc2)nn1 | 10.4 | 2.2
O=C(N/N=C\c1cccc2ccccc12)C1CC(=O)N(c2ccc(Br)cc2)C1 (configuration not stated) | -3.3 | -5.9
COc1nc(-c2ccccc2C)n(-c2ccc(NC(=O)c3ccc(Cl)c(Cl)c3)cc2)n1 | 10.2 | 15.4
CC1NC(=S)N(c2cccc(COCC3CCCCO3)c2)C1=O (configuration not stated) | 1.9 | 1.0
CC1CCC(NC(=O)c2cc3c(s2)CSC3)CC1 (configuration not stated) | 23.1 | 12.6
N#CC1C(=N)OC2=C(C(=O)CCC2)C1c1ccc(O)c(O)c1 (configuration not stated) | -9.1 | -17.6
CCOc1c(I)cc(Br)cc1C(OC(C)=O)OC(C)=O | 8.9 | 6.8
Cc1ccc(-c2ccc(C(=O)NCC(N)=O)c(F)c2)cc1 | 15.9 | 8.8
CCS(=O)(=O)c1cccc(C(=O)Nc2c3c(nn2-c2ccccc2)CCC3)c1 | 12.1 | 11.0
CC(NC(=O)C1CCCN(C(=O)N2CCCC2)C1)c1cccc(NC(=O)c2ccccc2)c1 (configuration not stated) | 7.1 | 3.7
O=C(NCc1ccccn1)c1cc2sc(Br)cc2n1CC1CCCCO1 (configuration not stated) | 4.5 | -7.8
CSCCC(OC(=O)c1ccc(F)cc1)C(N)=O (configuration not stated) | 3.4 | 0.4
COc1ccc(CC(=O)Nc2ccc3c(c2)N(CC(C)C)C(=O)C(C)(C)CO3)cc1 | -8.4 | -7.9
CCc1nc2ccc(C(=O)NCC3CCCCC3)cn2c1N(CC)Cc1cccc(Br)c1 | 7.7 | 7.4
O=C1[C@@H]2C[C@H](O)CCN2C(=O)CN1CCCn1ccnc1 | -5.0 | -9.5
COC(=O)C(C)Sc1ncnc2sc(C)c(C)c12 (configuration not stated) | 5.1 | 2.5
O=C(NCc1cnc(-c2ccccc2)s1)C1CCC(=O)N(Cc2ccccn2)C1 (configuration not stated) | 1.8 | -0.7
Cc1cc(NC(=O)CSc2nnc(NC3CC3)s2)no1 | 8.6 | 13.2
O=c1c2cnc3nc4ccccc4n3c2ccn1-c1ccc(F)cc1 | 0.0 | -2.1
NC1=NC(c2ccc(Cl)cc2Cl)n2c(nc3ccccc32)N1 (configuration not stated) | 10.0 | 8.5
CCOC(=O)C(CC)Sc1n[nH]c(=O)[nH]c1=O (configuration not stated) | -2.4 | -4.2
COC(=O)CSc1nnc2[nH]c(=O)c(C)c(C)n12 | -11.4 | -10.5
CC(C)(C)OC(=O)Nc1ccsc1Br | -3.1&-1.5 | -6.2&-5.8
O=C1CCCN1CCCN1CC(C(=O)N2CCN(CC3CCCC3)CC2)CCC1=O (configuration not stated) | 13.5 | 9.6
Cc1ccc(S(=O)(=O)CCOC2CCCCC2C)nc1 (configuration not stated) | 7.3 | 7.2

Entries of single compounds, looked up by structure. Order of values: NPYLR7 agonist, NPYLR7 agonist max-min
CCOc1c(I)cc(Br)cc1C(OC(C)=O)OC(C)=O across the screens: 8.9, 6.8
O=C(NCc1ccccn1)c1cc2sc(Br)cc2n1CC1CCCCO1 (configuration not stated) across the screens: 4.5, -7.8
O=C(N/N=C\c1cccc2ccccc12)C1CC(=O)N(c2ccc(Br)cc2)C1 (configuration not stated) across the screens: -3.3, -5.9

Following part:
SMILES | NPYLR7 agonist | NPYLR7 agonist max-min
CCC(C)NC(=O)c1nn(-c2ccc(S(C)(=O)=O)cc2)c(=O)n(CC)c1=O (configuration not stated) | -3.4 | -2.4
COc1cc(/C=C2\Oc3cc(OC(=O)N4CCOCC4)cc(C)c3C2=O)cc(OC)c1OC | 5.7 | 2.8
Nc1cccc2c1C(=O)N(C1CCC(=O)NC1=O)C2=O (configuration not stated) | 14.3 | 3.1
CCCN1c2cccc3cccc(c23)S1(=O)=O | 2.6 | 2.4
COc1ccc(CCCN2C(=O)O[C@@H]3CN(c4ccnc(SC)n4)C[C@@H]32)cc1 | -2.5 | -2.6
Cc1ccc(-c2noc(-c3ccc([N+](=O)[O-])cc3)n2)cc1 | 3.3 | 6.0

In the list so far, these have two or more sulfur atoms:
SMILES | NPYLR7 agonist | NPYLR7 agonist max-min
NS(=O)(=O)c1cnc(NC2CCCN(c3ccc(OC(F)F)cc3)C2=O)s1 (configuration not stated) | 4.2 | 3.4
O=C(CCN1CCc2sccc2C1c1cccc(F)c1)N1CCN(C(=O)Cc2cccs2)CC1 (configuration not stated) | 8.7 | -1.7
Nc1nnc(CCS(=O)(=O)c2ccc(Br)cc2)s1 | -9.8 | -9.2
CCS(=O)(=O)c1ccc(-c2ccc(NS(=O)(=O)c3ccc(C)cc3C)cc2)nn1 | 10.4 | 2.2
CC1CCC(NC(=O)c2cc3c(s2)CSC3)CC1 (configuration not stated) | 23.1 | 12.6
COC(=O)C(C)Sc1ncnc2sc(C)c(C)c12 (configuration not stated) | 5.1 | 2.5
Cc1cc(NC(=O)CSc2nnc(NC3CC3)s2)no1 | 8.6 | 13.2
